Screening results (PubChem BioAssay)
Calb FLC = affects C. albicans growth with fluconazole; growth inhibition, % (no concentration beside the values); C. albicans CaCi-2 (fluconazole-resistant clinical isolate) + fluconazole, Alamar Blue growth, 48 h; actives 0.57% (n = 300,000);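 active means most replicates above 75%; inconclusive means exactly half above 75%; inactive means most below 75%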;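 further: all wells also contain fluconazole at 8 µg/ml as a sub-toxic cotreatment; 0% = median of DMSO wells and 100% = median of geldanamycin control wells; wells of about 8 µL received 7.5 nL stock; the first replicate is given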
RanGTP-Impb inh = inhibitors of RanGTP-importin-beta interaction, primary screen, biochemical, FRET, CFP-Ran, YFP-importin-beta, homogeneous. inhibition, % (no concentration beside the values). actives 1.1% (n = 300,000). AID 2216. cell-free CFP-Ran/YFP-importin-beta FRET ratio;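 active means most replicates above 15%; inconclusive means exactly half above 15%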;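 further: 0% = DMSO wells and 100% = Ran loaded with GDP instead of GTP; wells of about 40 µL received 100 nL stock; the first replicate is given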
Ecoli rRNA inh = inhibits bacterial ribosomal RNA function over humanized ribosomes; E. coli WT GFP vs humanized-ribosome RFP mutants, fluorescence, 24 h; hits give low values; DMSO median 0, no signal -100; GFP signal change (wild-type ribosome), % (concentration not given with the values); actives 1.6% (n = 350,000);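 active means significant combined selectivity score with lowered wild-type GFP, culture density cut under 30%, mutant RFP and density less affected; inactive means any of these conditions unmet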; further: one replicate is shown; some compounds called inactive have numbers as strong as hits
FGF22 binding = FGF22 (human) thermal shift binding | recombinant FGF22 thermal shift, SYPRO orange fluorescence; percent of sucrose octasulfate shift, DMSO zero | calls only at 9.99 µM | actives 1.5% (n = 340,000) | AID 651658;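 active means melting point raised past a set limit in the mean and every replicate; inconclusive means no clear call; three in four hits are not shown here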
Target sequence (Q9HCT0 whole entry, looked up): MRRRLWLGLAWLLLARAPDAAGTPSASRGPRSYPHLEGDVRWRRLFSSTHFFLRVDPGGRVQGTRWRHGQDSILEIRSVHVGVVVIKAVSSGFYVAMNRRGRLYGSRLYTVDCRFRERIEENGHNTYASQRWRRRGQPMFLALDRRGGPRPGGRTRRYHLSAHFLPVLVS
T cruzi inh = T. cruzi replication inhibition. inhibition, % (no concentration beside the values). T. cruzi beta-gal in NIH3T3, luminescence, 90 h. actives 1.4% (n = 300,000). AID 1885;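 active means mean inhibition across valid replicates above about 55%, limit read from the data; inconclusive means mean below that limit but half or more replicates reach it; inactive means mean below it, under half of replicates reach it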;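 further: signal also drops with host cell toxicity which is not excluded here; 0% = plate median of DMSO wells and 100% = zero luminescence signal; higher percent means less beta-gal luminescence so fewer parasites; stock transfer was 50 nL into about 50 µL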
Beta apoptosis = beta cell apoptosis inhibition; INS-1E cytokine-induced death, ATP luminescence, 48 h; percent of positive-control rescue, neutral wells zero; protection from apoptosis, % (test concentration not listed); actives 0.8% (n = 300,000);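 active means all replicates at 75% or more, or half of them and the mean; inconclusive means half reach 75% but not the mean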;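 further: 0% = cytokine-treated negative control wells and 100% = positive control rescue; higher means more ATP so stronger rescue from cytokine killing; wells of about 40 µL received 100 nL stock; the first replicate is given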
ALR inh = blocks human ALR sulfhydryl oxidase activity | purified ALR, DTT oxidation, H2O2 HRP-luminol luminescence | AID 485317 | P55789 | inhibition, % (no concentration beside the values) | actives 3.8% (n = 290,000);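 active means mean and each replicate at 75% or more; inconclusive means only one of the two met; inactive means neither met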;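 further: stock transfer was 7.5 nL into about 7.5 µL; 0% = neutral wells and 100% = wells with inactivated enzyme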
Target sequence (P55789 whole entry, looked up): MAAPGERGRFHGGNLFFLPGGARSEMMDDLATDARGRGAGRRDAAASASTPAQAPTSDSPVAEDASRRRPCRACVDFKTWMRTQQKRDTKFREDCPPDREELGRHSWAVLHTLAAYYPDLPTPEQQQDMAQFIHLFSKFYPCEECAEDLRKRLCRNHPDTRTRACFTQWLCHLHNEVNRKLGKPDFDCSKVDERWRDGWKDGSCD
MLL AF4-AF9 inh = blocks AF4 peptide binding to human AF9 | P42568 | AlphaScreen, biotin-AF4 peptide binding to FLAG-AF9 | inhibition, % at 10 µM | actives 0.47% (n = 350,000) | AID 651704;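 active means every replicate reaching a set inhibition limit, whatever the replicate mean, cut at about 25% in these data; inconclusive means mean inhibition reaches that limit but some replicates miss it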;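 further: 0% = plate neutral control median and 100% = total signal loss; the record names both 10 and 1 µM as test concentration; the first replicate is given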
Target sequence (P42568 whole entry, looked up): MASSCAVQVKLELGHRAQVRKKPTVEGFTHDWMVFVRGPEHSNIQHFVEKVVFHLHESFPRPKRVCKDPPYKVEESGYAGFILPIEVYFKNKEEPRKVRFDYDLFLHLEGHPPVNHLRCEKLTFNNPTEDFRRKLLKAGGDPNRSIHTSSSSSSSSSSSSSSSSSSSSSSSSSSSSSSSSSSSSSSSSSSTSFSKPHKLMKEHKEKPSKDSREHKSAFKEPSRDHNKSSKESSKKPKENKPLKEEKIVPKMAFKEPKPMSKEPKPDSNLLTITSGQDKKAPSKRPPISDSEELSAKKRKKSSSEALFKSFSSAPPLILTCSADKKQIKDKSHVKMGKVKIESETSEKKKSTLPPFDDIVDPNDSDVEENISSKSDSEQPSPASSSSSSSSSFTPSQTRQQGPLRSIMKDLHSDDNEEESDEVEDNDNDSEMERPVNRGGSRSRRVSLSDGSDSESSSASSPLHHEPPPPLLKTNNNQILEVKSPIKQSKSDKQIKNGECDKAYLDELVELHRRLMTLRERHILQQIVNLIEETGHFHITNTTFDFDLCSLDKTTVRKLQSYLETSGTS
Ecoli rRNA inh OD600 = also measured in Ecoli rRNA inh; calls as there; OD600 change, %; measured here: OD600 growth;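 optical density of the mix in the first replicate; 0 = DMSO median and -100 = no signal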
Ecoli rRNA inh RFP = second read-out of Ecoli rRNA inh, no call of its own (marks repeat the call); RFP signal change, %; measured here: RFP humanized mutant strains;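 first replicate; 0 = DMSO median and -100 = no signal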
Active calls of the source: *; i = inactive; u = inconclusive; x = not tested or not shown. This is a subset, so the mix of outcomes need not match the whole.

Sequence of screens – Calb FLC	RanGTP-Impb inh	Ecoli rRNA inh	Ecoli rRNA inh OD600	Ecoli rRNA inh RFP	FGF22 binding	T cruzi inh	Beta apoptosis	ALR inh	MLL AF4-AF9 inh
CCOc1ccc(N2CC(C(=O)N3CCN(C(=O)c4ccco4)CC3)CC2=O)cc1 (stereo not drawn)
→ 9	2.2	5	16	1.3	i	-12	-3	-2	0.0
Cn1cc(S(=O)(=O)NC2CCCC2)c(=O)n(C)c1=O
→ 7	1.8	2	-3	-1.9	i	20	x	-3	-5.9
COCCn1c(-c2ccc(Br)cc2)nc2oc3cc(OC)ccc3c(=O)c2c1=O
→ -18	6.6	12	1	0.2	i	-2	-1	-5	4.5
CCOC(=O)c1c(N)c(C#N)cn1-c1ccccc1
→ 9	7.4	x	x	x	x	-6	-7	-2	x
Cc1ccc2ccc(S(=O)(=O)NCc3ccccn3)cc2c1
→ -11	1.4	-8	-16	1.3	i	-5	0	1	-0.3
Cc1cc(OC(C)C(=O)NCc2cccnc2)c2c(C)c(Cc3ccccc3)c(=O)oc2c1 (stereo not drawn)
→ -2	-1.3	0	0	0.6	i	17	9	-3	0.1
COC(=O)c1cccc(Nc2ncnc3ccc(C)cc23)c1
→ 22	3.9	12	10	-0.6	i	1	-3	-2	4.0
Cc1nc2ncnn2c(Nc2ccc3c(c2)OCO3)c1Cc1ccccc1
→ -19	0.4	x	x	x	x	18	8	30	x
Cc1nc2ccccc2c2oc(C(=O)NCCN3CCCCC3C)cc12 (stereo not drawn)
→ 4	6.5	2	10	1.1	i	-6	9	-3	-5.8
O=C(C1CCN(S(=O)(=O)c2cccs2)CC1)N1CCN(c2ccccc2O)CC1
→ x	x	x	x	x	i	x	8	-1	2.5
CCCC(C)C(=O)OCC(=O)Nc1ccc(Br)cc1 (stereo not drawn)
→ -5	2.8	x	x	x	x	-1	-3	-2	x
Cc1ccccc1-n1c(C)c(C#N)c(=O)c(-[n+]2ccccc2)c1[S-]
→ -2	1.7	23	7	1.2	x	-7	-3	-15	-2.2
O=C(C1CCN(C2CCN(Cc3ccc4cc(F)ccc4n3)CC2)CC1)N1CCCC1
→ 1	1.6	13	5	-0.4	i	7	x	-8	-5.6
CCSc1nnc(NC(=O)CSc2nnc(CNC(=O)c3ccc(OC)c(OC)c3)o2)s1
→ -9	1.9	x	x	x	i	-14	x	3	-3.6
COCCC(=O)N1CCC(Oc2ccc(C(=O)N3C[C@@H](C)O[C@@H](C)C3)cc2)CC1
→ -5	0.6	x	x	x	i	-16	x	x	-2.2
CCN(C(=O)CSc1nc2ccccc2[nH]1)C1CCS(=O)(=O)C1 (stereo not drawn)
→ x	x	15	16	2.8	i	x	-2	5	-3.4
Cc1nc2oc3c(NCc4ccccc4)ncnc3c2c2c1COC(C)(C)C2
→ 0	5.8	x	x	x	x	31	8	-16	x
CCc1ccc(NC(=O)/C(C#N)=C/c2ccncc2)cc1
→ 5	0.3	-9	-15	0.5	i	-6	-9	u	-1.6
Cc1ccc2c(c1)C(c1ccc(F)cc1)N(C(=O)c1cc3ccccc3oc1=O)CC(=O)N2 (stereo not drawn)
→ 12	0.2	-5	-5	3.3	i	-10	4	x	-0.9
CSc1ccc(/C=C/C(=O)NC(=O)c2ccccc2O)cc1
→ 59	-1.4	-36	-52	1.8	i	-7	-12	13	0.5
COc1ccc(N(CC(=O)NCCSc2ccccc2)S(=O)(=O)c2ccccc2)cc1OC
→ 9	-12	14	8	0.9	i	29	-5	-3	-1.0
Cc1ccc(-c2nc(NC(=O)CSc3nnnn3-c3ccccc3)ns2)cc1
→ 32	4.5	x	x	x	x	8	-6	4	x
CC(C(=O)NCCc1ccc(F)cc1)N1CCN(Cc2ccccc2)CC1 (stereo not drawn)
→ -1	0.7	19	11	0.9	x	30	0	-7	1.4
C/C(=C\C(=O)OCC(=O)NCc1ccccc1)C(=O)OCC(=O)NCc1ccccc1
→ 10	1.5	x	x	x	x	-14	-6	12	x
O=C(COC(=O)c1ccc(O)cc1)Nc1ccc(OC(F)F)cc1
→ 2	-0.4	10	10	4.6	i	-5	-4	x	-1.2
COC(=O)c1cc2c(ccn2-c2ccc(F)cc2)n1Cc1ccc(OC)cc1
→ -2	3.0	x	x	x	x	8	5	-30	x
Cc1ccc2ncnc(NCCC(=O)O)c2c1
→ -11	1.0	x	x	x	x	1	2	-5	x
O=S(=O)(Oc1ccccc1/C=N/n1cnnc1)c1ccccc1
→ -10	1.3	10	9	1.8	i	-15	-8	-27	-7.5
COc1cc(NC(=S)N2CCN(c3ccccn3)CC2)c(OC)cc1Cl
→ 8	4.3	x	x	x	x	-12	-1	x	x
COc1ccc(OCc2nnc(SCC(N)=O)n2N)cc1
→ -3	7.6	x	x	x	x	0	-2	-10	x
O=C(CN1C(=O)NC2(CCOc3ccccc32)C1=O)c1ccc[nH]1 (stereo not drawn)
→ -5	x	7	11	0.5	i	1	3	-11	-14
Cc1ccc(NC(=O)C(=O)NCCc2c[nH]c3ccccc23)cc1C
→ 0	-5.9	1	6	1.1	i	-5	5	3	-12
O=[N+]([O-])c1ccc(Oc2ccc(C(F)(F)F)cn2)cc1
→ 8	3.6	12	-3	0.2	i	-1	-3	-14	0.3
COc1ccc(Cc2n[nH]c(=S)n2-c2ccc3c(c2)OCCO3)cc1
→ 3	-1.6	-5	-12	-2.8	i	-3	3	6	-8.0
Nc1ccc(-c2cnc(-c3ccc(N)cc3)nc2)cc1
→ -5	-3.7	x	x	x	x	-9	4	x	x
O=C(O)CC(c1ccccc1)N1C(=O)c2ccccc2C1=O (stereo not drawn)
→ -16	11	-3	1	0.8	i	-9	2	-1	x
COc1ccc(Nc2cc3n(c(=O)n2)CCc2cc(OC)c(OC)cc2-3)cc1
→ 2	5.9	17	-15	-3.2	i	-4	19	-15	8.0
O=C1c2cccc3cccc(c23)C(=O)C1(O)O
→ -10	6.5	-28	-24	-5.6	i	11	-5	99*	-4.1
COC(=O)CN1C(=O)CC(C)(C)Sc2ccccc21
→ -4	1.0	8	-3	4.6	i	-11	-4	-10	u
CCOC(=O)N1CCN(C(=O)CS(=O)(=O)c2cn(Cc3ccc(Cl)cc3)c3ccccc23)CC1
→ 0	3.6	1	5	2.2	i	6	-1	-8	3.8
COc1cccc(CN(C)C(=O)C2CCN(S(=O)(=O)c3ccc(C)cc3)CC2)c1OC
→ x	x	-6	-17	-3.5	i	x	-1	-12	0.2
CCCC(c1nnnn1CCc1ccccc1)N1CCC(C(N)=O)CC1 (stereo not drawn)
→ 0	u	x	x	x	x	-6	-9	x	x
CN(C1CCCCC1)S(=O)(=O)c1ccc(S(=O)(=O)N2CCN(C(=O)c3ccccc3F)CC2)cc1
→ 0	u	x	x	x	x	34	0	1	x
CN(Cc1ccco1)C(=O)c1ccc(OC2CCN(Cc3ccccn3)CC2)cc1
→ -1	u	4	7	-1.8	i	-1	1	-9	-0.1
COc1ccc(CCNC(=O)NS(=O)(=O)c2ccc(C)cc2)cc1OC
→ -7	1.3	6	3	-3.3	i	-8	-2	-16	8.6
COCCNC(=O)CSc1ccccc1C(=O)NCC1CCCCC1
→ -23	3.6	18	13	1.8	i	22	-5	-10	-3.4
CCCCCCCCCC(=O)Nn1cnc2ccccc2c1=O
→ -17	u	-16	-21	-7.5	i	6	3	-8	-0.2
Cc1cc(C)n(-c2nc3ccccc3c(=O)n2OCC(=O)Nc2c(C)cccc2C)n1
→ 5	4.9	x	x	x	x	-26	3	-2	x
CC1=NN(C(=O)Cn2nc([N+](=O)[O-])cc2C)C(O)(C(F)(F)F)C1 (stereo not drawn)
→ 3	18*	x	x	x	x	-18	6	-5	x
COc1ccccc1N1CCN(C(=O)Cn2nnc(-c3cccs3)n2)CC1
→ 1	u	x	x	x	x	14	1	-7	x
Cc1c(NC(=O)CSCc2ccccc2)cccc1C(=O)O
→ 4	-1.9	-3	-6	-3.4	i	-15	-6	-24	-1.6
Cc1c(Cl)cccc1N1C(=O)CC(N(O)c2ccccc2)C1=O (stereo not drawn)
→ 1	-4.0	x	x	x	x	-8	0	52	x
CCOc1ccccc1CNC(=O)CCNS(=O)(=O)c1ccc2[nH]c(=O)oc2c1
→ 3	2.2	-2	-6	-3.1	i	10	-5	-4	-10
COc1ccc(C(=O)Nc2cccc(N(C)S(C)(=O)=O)c2)cc1OC
→ 27	5.2	x	x	x	x	-5	0	-7	x
COc1ccc(/C=C/c2nnc(NC(=O)C(C)C)s2)cc1
→ -2	2.4	1	1	2.9	i	-8	x	-3	3.7
CCOC(=O)C1CCN(C(=O)c2cccs2)CC1
→ -22	u	-4	-4	-0.3	i	3	2	-4	-6.6
CCN(CC(=O)NCc1ccncc1)S(=O)(=O)c1ccc(OC)cc1
→ 4	-6.4	-2	5	-1.7	i	5	-4	-2	0.0
CC(=O)NC(CC(=O)OCC(=O)N1CCN(S(=O)(=O)c2ccc(Cl)cc2)CC1)c1ccccc1 (stereo not drawn)
→ 3	1.8	10	9	2.5	i	-1	-3	-4	0.1
O=C(c1cc(COc2ccc(F)cc2Cl)on1)N1CCSCC1
→ 0	u	-37*	-21*	-3.5*	i	14	-2	1	-1.0
CCOC(=O)Cc1nnc(Nc2cccc(O)c2)c2ccccc12
→ 3	-1.8	x	x	x	x	-1	2	x	x

The list continues.
Sequence of screens – Calb FLC	RanGTP-Impb inh	Ecoli rRNA inh	Ecoli rRNA inh OD600	Ecoli rRNA inh RFP	FGF22 binding	T cruzi inh	Beta apoptosis	ALR inh	MLL AF4-AF9 inh
Cn1c(SCC(=O)N2CCOCC2)nc2cccnc21
→ 2	u	x	x	x	x	0	-3	-6	x
Cc1ccc2oc(C(=O)NC3CCS(=O)(=O)C3)cc(=O)c2c1 (stereo not drawn)
→ 0	2.7	11	8	-3.8	i	-5	-3	1	-1.1
CC(C)CCc1noc(CN2CCN(CC(=O)NC(C)C)CC2)n1
→ 1	3.7	5	10	-3.5	i	-8	0	x	0.3
C/C(=C\C(=O)c1c(O)cc(C)oc1=O)N(C)C
→ -20	1.7	14	11	2.2	i	-21	x	-4	-0.4
Cc1ccccc1Cn1cnc2ccccc21
→ -6	u	1	14	1.3	i	-20	6	-24	1.7
CCOC(=O)N1CCN(CCC(=O)Nc2cc(OC)ccc2OC)CC1
→ 41	0.1	18	9	3.6	i	-4	6	-8	-0.4
CC1=C[C@H]2OC(=O)[C@@H](C)[C@H]2C[C@@H]2[C@H]1C[C@@H](O)[C@@]2(C)O
→ -4	3.9	4	18	2.0	i	-4	2	-12	-20
O=C(C1CCN(S(=O)(=O)c2ccc(Br)s2)CC1)N1CCc2ccccc21
→ 1	8.1	x	x	x	x	31	5	x	x
O=C(CC12CC3CC(CC(C3)C1)C2)NC(Cc1ccccc1)C(=O)O (stereo not drawn)
→ -15	u	-17	-21	-3.8	i	16	0	-20	-6.4
